Source: PubChem BioAssay
KSHV LANA nucl: inhibitors of KSHV LANA binding to nucleosomes | FITC-LANA1-23 / chicken nucleosome fluorescence polarization; hits give low values | z-score (test concentration not listed) | 0.3% of 51,000 active | AID 720717;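 active = both repeat wells score below -2 in polarization z-score versus plate sample wells, excluding overly bright wells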;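 also: 100 nL library stock added to about 30 µL; numbers are from one replicate; some results filed as inactive read as strong as hits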
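Material: Purified chicken nucleosomes with FITC-labelled LANA N-terminal peptide (1-23) | Reagent: 50 nM FITC-LANA1-23 probe | Medium: TEN-BT buffer, pH 7.5 | Times: 10–45 min incubation at room temperature | Detection: Fluorescence polarization | Replication: Duplicates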
Ab BasE inh: BasE siderophore biosynthesis inhibition. purified BasE, fluorescence polarization binding displacement. inhibition, % (concentration not given with the values). 0.1% of 84,000 active. AID 485350;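 active = both replicates above 25% with normal brightness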;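 also: 0% = negative plate control signal and 100% = positive plate control signal; stock transfer was 100 nL into about 30 µL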
Active calls of the source: *; . = no result given; & = joins results of further samples. A portion of the library, so the mix of outcomes need not match the whole.

Molecule | KSHV LANA nucl | Ab BasE inh
c1csc(-c2csc(N3CCCCC3)n2)c1 | . | 4.0
O=C(CC12CC3CC(CC(C3)C1)C2)Nc1ccc2oc(-c3ccncc3)nc2c1 | -0.41 | 1.4
Cc1cc(NC(=O)COC(=O)C2=COCCO2)n(-c2ccccc2)n1 | . | -1.8
Cc1cc(C(=O)/C(C#N)=C/Nc2cccc(OC(F)(F)F)c2)c(C(F)(F)F)o1 | 2 | -0.7
NC(N)=NCCCCN=C(N)N | 0.5 | -0.7
CC(NC(=O)NC1CCN(c2nc3ccccc3s2)CC1)c1cccs1 (stereo not given) | 0.11 | 5.2
Clc1ccc(CN2C3=NCCCN3c3ccccc32)c(Cl)c1 | -0.61 | -5.5
CC(C)(C)C(=O)CSc1ncnc2sccc12 | . | 2.2

Structures from the list above that have two or more sulfur atoms:
Molecule | KSHV LANA nucl | Ab BasE inh
c1csc(-c2csc(N3CCCCC3)n2)c1 | . | 4.0
CC(NC(=O)NC1CCN(c2nc3ccccc3s2)CC1)c1cccs1 (stereo not given) | 0.11 | 5.2
CC(C)(C)C(=O)CSc1ncnc2sccc12 | . | 2.2

(list continues)
Molecule | KSHV LANA nucl | Ab BasE inh
C=CCn1c(-c2cccs2)nc(-c2ccccc2)c1-c1ccccc1 | . | 0.3
CCC(Sc1n[nH]c(=O)[nH]c1=O)C(=O)O (stereo not given) | . | -1.4
CN(C(=O)COc1cc(C(F)(F)F)n(C)n1)c1ccccc1 | . | 5.3
CCCNC(=O)c1sc2nc(C)cc(C)c2c1-n1cccc1 | 0.36 | 0.3
O=C1CC(c2ccccc2)C(=O)N1Cc1ccc(Cl)cc1 (stereo not given) | . | -1.0
Cc1cc2cc(CNC(=O)NC3CCCCC3)ccc2[nH]1 | -1.7 | 2.4
O=c1[nH]cnc2c1nnn2Cc1ccccc1F | 0.17 | 2.5
NCCCC(=O)O | -0.69 | 3.2
COC(=O)c1sccc1N/N=C(/C#N)C(=O)C1CC1 | 1.6 | -4.6
Cc1ccc(-c2nc(C#N)c(NCCCn3ccnc3)o2)cc1 | . | 1.0
COC(=O)c1noc(C)c1-c1ccnn1C(=O)c1cc(C(F)(F)F)cc(C(F)(F)F)c1 | . | 2.9
COCC(=O)Nc1nc2ccc(OC)cc2s1 | -0.55 | -1.3
Cc1cc(C)cc(OCCn2c(-c3ccc(Cl)cc3)nc3ccccc3c2=O)c1 | . | -1.3
CCOc1ccc2nc(NC(=O)c3ccncc3)sc2c1 | -0.26 | 2.2
CC1CC(C)(C)OC(c2ccccc2)O1 (stereo not given) | 0.27 | 0.4
COc1ccc(CC(=O)N2CCN(c3ncccn3)CC2)cc1OC | . | 0.5

Reprinted from the listing (five entries):
Molecule | KSHV LANA nucl | Ab BasE inh
c1csc(-c2csc(N3CCCCC3)n2)c1 | . | 4.0
O=C(CC12CC3CC(CC(C3)C1)C2)Nc1ccc2oc(-c3ccncc3)nc2c1 | -0.41 | 1.4
Cc1cc(NC(=O)COC(=O)C2=COCCO2)n(-c2ccccc2)n1 | . | -1.8
Cc1cc(C(=O)/C(C#N)=C/Nc2cccc(OC(F)(F)F)c2)c(C(F)(F)F)o1 | 2 | -0.7
NC(N)=NCCCCN=C(N)N | 0.5 | -0.7

New compounds follow.
Molecule | KSHV LANA nucl | Ab BasE inh
CCC1(CC)C(=O)N=C(SCC(=O)Nc2c(C)n(C)n(-c3ccccc3)c2=O)N(C)C1=O | 0.37 | -1.7
CCOC(=O)C1CCCN(C(=O)c2sc3nc(-c4ccccc4)cn3c2C)C1 (stereo not given) | 0.65 | 0.2
O=c1onc(-c2ccccc2)n1-c1cccc(Cl)c1 | 0.53 | -1.1
CN=C1SC(CC(=O)Nc2ccc(Br)cc2)C(=O)N1/N=C/c1cccs1 (stereo not given) | . | 0.0
CC1(C)CC(=O)c2sc(NS(C)(=O)=O)nc2C1 | . | 1.9
COC(=O)c1ccc(C(=O)OC)c(N(C)S(C)(=O)=O)c1 | -0.16 | 0.8
CCC(=O)Nc1cc(NC(=O)c2ccco2)ccc1C | 0.87 | 0.4
Cc1noc(C)c1NC(=O)Nc1cc(C(F)(F)F)cc(C(F)(F)F)c1 | 0.82 | -0.9
Cc1ccc(-c2n[nH]c3c2CCC3)cc1 | -0.33 | .
CN(C)CCCN=C(NO)c1c(Cl)cccc1Cl | -0.46 | .
O=C(Nc1ncn[nH]1)c1ccc2c(c1)S(=O)(=O)c1ccccc1C2=O | . | -0.7
Cc1oc(-c2ccc(Cl)cc2)cc1-c1ccn[nH]1 | 1.2 | -1.9
CC(Sc1nnc(-c2ccc3c(=O)n4c(nc3c2)CCCCC4)o1)C(=O)Nc1ccc(F)cc1 (stereo not given) | . | -2.0
COC(=O)c1c(N)n(-c2ccc(OC)cc2)c2nc3ccccc3nc12 | -0.33 | 3.0
CC(=O)Oc1cc(C(F)(F)F)ccc1C(=O)O | -0.83 | 1.1
CCOC(=O)c1cccc(NS(=O)(=O)c2cc(-c3cc(C)[nH]n3)ccc2C)c1 | -0.17 | 1.8
CCC1CCC(C(=O)O)CC1 (stereo not given) | 0.36 | .
O=C1/C(=C/c2ccccc2)CC/C1=C1\SCC(=O)N1c1ccccc1 | . | -0.7
COC(=O)c1cc(-c2ccc(C)cc2)n[nH]1 | -0.21 | 3.1
COc1cc(OC)cc(-c2nnc(SC(C)C(=O)NC3(C#N)CCCCC3)o2)c1 (stereo not given) | . | 0.2
CN(C(=O)COc1cc(C(F)(F)F)nn1C)c1ccccc1 | -0.55 | .
Cn1nccc1NC(=O)Nc1ccc(Cl)cc1 | -0.21 | 2.4
O=C(CN(Cc1ccco1)S(=O)(=O)c1ccccc1)Nc1ccccc1 | . | -4.6
c1cncc(CNCc2ccco2)c1 | 1 | .
CC1CC(OC(=O)C(O)c2ccccc2)CC(C)(C)N1C (stereo not given) | -0.21 | -0.1
COCc1cc(C)nc(SCC(N)=O)c1C#N | -2.3 | 0.1
O=C(COc1cc2oc(=O)c3c(c2cc1Cl)CCC3)N1CCCC1 | 0.32 | 5.0
Nc1cc(N)nc(SCc2ccc(Cl)cc2)n1 | 0.12 | -1.4
Cc1cc(C)n(-c2ccc(N=NC3=C(O)CCCC3=O)cc2)n1 | 0.19 | -0.8
c1ccc(OCCSc2nc3ccccc3o2)cc1 | 0.28 | 4.8
CN(Cc1ccc(Cl)cc1Cl)Cn1ccn(C)c1=S | . | 0.9
Nc1ccnn1C1CCCC1 | 0.38 | -1.1
Cc1cc(-c2c(C(=O)NN3CCOCC3)c(C)nn2-c2ccccc2)no1 | 0.39 | 1.3
c1ccc2c(c1)CCN(Cc1ccncc1)C2 | 0.55 | 0.4
COc1cccc(OC)c1C(=O)N=c1sc2cc(S(C)(=O)=O)ccc2n1C | . | 1.8
COc1nc(C)nc(NC(=O)NN)n1 | -1.1 | 1.1
O=C(c1ccc(Nc2nc3ccccc3n3nnnc23)cc1)N1CCc2ccccc2C1 | 0.68 | -3.9
O=C(O)COc1nsnc1N1CCOCC1 | -0.0025 | -1.2
COc1ccc(C2=NOC(CN3C(=O)c4ccccc4S3(=O)=O)C2)cc1 (stereo not given) | -0.49 | 1.0
O=C(CCn1c(SCC(=O)NCc2ccccc2)nc2cc3c(cc2c1=O)OCO3)NCc1ccc2c(c1)OCO2 | 0.19 | 0.6
COc1ccc(C(=O)Nc2c(N)nc(SCC(=O)NC3CCCCC3)[nH]c2=O)cc1 | 0.36 | 1.3
O=C1CC(C(=O)NC2CCCCC2)C(c2ccccc2)O1 (stereo not given) | 1.5 | -2.6
COc1cccc(-c2cc(C(=O)Nc3cccnc3)on2)c1 | -0.53 | 19
Cc1nc(C)c(S(=O)(=O)NCc2ccc(N3CCN(C)CC3)cc2)s1 | . | -0.3
COc1ccc(S(N)(=O)=O)cc1C(=O)Nc1ccc(N2CCOCC2)cc1 | . | -1.1
CCOCc1cnc(C)nc1NC(C)=O | . | 2.4
Oc1ccc(/C=N/NC(=S)NCC2CCCO2)cc1 (stereo not given) | . | 0.7
O=C([C@@H]1CCCN1C(=O)c1cccs1)N(CC1CCCO1)C1CCS(=O)(=O)C1 (stereo not given in full) | . | 0.2

(more compounds)
Under each structure: KSHV LANA nucl	Ab BasE inh
> Cc1c(NS(=O)(=O)N2CCCCC2)c(=O)n(-c2ccccc2)n1C
    -0.6	2.6
> O=C(CSc1n[nH]c(=O)[nH]c1=O)c1ccc(Cl)cc1
    -0.072	-1.3
> COc1ccc(C2C(=O)c3ccccc3C2=O)cc1
    0.021&-0.52	-0.8
> Cn1cnnc1SCc1cc(=O)c(OCC(=O)N2CCc3ccccc32)co1
    0.77	1.2
> O=C(c1cc2ncc(Br)cn2n1)N1CCCCC1
    -0.32	2.2
> CCOC(=O)c1c(C2CC2)csc1NC(=O)COn1nnc2ccccc21
    .	-0.1
> Cc1cc(/C=C(/C#N)C(=O)NC2CCCCC2)c(C)n1-c1ccc(I)cc1
    -1.1	0.1
> CCOC(=O)c1c2c(n(-c3ccccc3)c1N)OC(=N)C(C#N)C2c1ccc(Br)cc1 (stereo not given)
    .	2.4
> Cc1ccc(C)c2c1sc(=NC(=O)c1ccc(C#N)cc1)n2C
    -1.3	1.0
> Cc1ccc(-c2nnc3n(CC(C)C)c(=O)c4ccccc4n23)s1
    -1.1	0.7
> O=C(CSC1CCS(=O)(=O)C1)NCC(=O)c1ccccc1 (stereo not given)
    -0.22	1.5
> CCCNC(=O)Cn1nc(C)c2c(C)n(-c3ccc(C)cc3)nc2c1=O
    .	-1.4
> O=C(N=C1SCC(=O)N1c1ccccc1)c1ccco1
    -0.53	2.6
> C=CCn1c(SCC(=O)Nc2cc(C)on2)nnc1C1COc2ccccc2O1 (stereo not given)
    .	-0.4
> O=C1Nc2ccccc2S/C1=C/Nc1cccc(C(F)(F)F)c1
    0.31	.
> CCOC(=O)N1CCC(NC(=O)c2cc3ccc4cccnc4c3[nH]2)CC1
    .	-14
> Cc1cc(C)c(C)c(Cn2c(-c3ccco3)nc3ccccc32)c1C
    0.64	-2.2
> CC(C)c1ccc(C2NC(=S)NC3=C2C(=O)CCC3)cc1 (stereo not given)
    -0.44	1.9
> O=C(CCN1C(=O)C2C3C=CC(C3)C2C1=O)N1CCN(c2ccccc2)CC1 (stereo not given)
    -1.5	0.6
> Cc1cc(-n2c(C)cc(C(=O)COC(=O)C34CC5CC(CC(O)(C5)C3)C4)c2C)no1
    .	-10
> CCOC(=O)N1CCN(C2CC(=O)N(CCc3ccc(OC)c(OC)c3)C2=O)CC1 (stereo not given)
    -1.3	1.1
> CCN(CC(=O)NC1CCS(=O)(=O)C1)Cc1nc2c(Br)cc(Br)cc2c(=O)[nH]1 (stereo not given)
    .	-4.1
> Cc1cccc(NS(=O)(=O)c2cc3c(cc2C)n(C)c(=O)c(=O)n3C)c1
    0.38	-0.6
> CN1C(=O)C2(C(C#N)=C(N)N(c3ccccc3)C3=C2C(=O)CC(C)(C)C3)c2ccccc21 (stereo not given)
    -1.1	-0.6
> O=c1[nH]oc(O)c1-c1ccccc1
    .	2.1
> Clc1nc(Cl)nc(N2CCCCC2)n1
    -0.007	-2.4
> COc1ccc(C(C)NC(=O)c2ccccc2)cc1 (stereo not given)
    -0.35	0.4
> COc1ccc(OC)c(NC(=O)COc2coc(CN3CCc4ccccc43)cc2=O)c1
    0.81	1.8
> NC(=O)CC12CC3CC(C1)CC(CC(N)=O)(C3)C2
    1.3	57*
> COC(=O)Cc1[nH]n(-c2ccc(F)cc2)c(=O)c1C(C)=NC1CC(C)(C)NC(C)(C)C1
    -1.1	0.0

Whole records, quoted from the list. Values in the order: KSHV LANA nucl | Ab BasE inh
Shown for O=C(c1cc2ncc(Br)cn2n1)N1CCCCC1 = -0.32 | 2.2
Shown for CCN(CC(=O)NC1CCS(=O)(=O)C1)Cc1nc2c(Br)cc(Br)cc2c(=O)[nH]1 (stereo not given) = . | -4.1
Shown for COc1ccc(C(C)NC(=O)c2ccccc2)cc1 (stereo not given) = -0.35 | 0.4
Shown for Cc1cc(/C=C(/C#N)C(=O)NC2CCCCC2)c(C)n1-c1ccc(I)cc1 = -1.1 | 0.1

Going on with the list.
Under each structure: KSHV LANA nucl	Ab BasE inh
> CCCNC(=O)N1CCCc2ccccc21
    -0.71	0.9
> CCOC(=O)Cc1csc(NC(=O)CSc2nnc(-c3ccc(F)cc3)o2)n1
    -0.33	0.5
> NC(=O)c1ccc(NC(=O)CC2Sc3ccccc3NC2=O)cc1 (stereo not given)
    .	-1.9
> COCCNC(=O)CN1CCN(Cc2cc(C)n(CCc3ccc(Cl)cc3)c2C)CC1
    .	-0.2
> S=C1SCN(Cc2ccccn2)CN1Cc1ccco1
    -0.3	1.9
> CC1CC(N(CCC#N)S(=O)(=O)c2ccc(Br)cc2)CC(C)(C)C1 (stereo not given)
    .	1.4
> CCC(=O)N1N=C2C(C)CN(C)C(C)C2C1c1ccco1 (stereo not given)
    -0.34	0.6
> CS(=O)(=O)N1CCN(c2ccccc2NC(=S)NC(=O)c2ccc(-c3cccc(Cl)c3)o2)CC1
    0.26	0.2
> O=C(COc1ccc(S(=O)(=O)NCc2ccccc2)cc1)NCc1ccco1
    0.38	0.0
> O=C1CC(c2ccccc2)CN1C(=O)c1ccccc1 (stereo not given)
    0.58	4.4
> Cc1c(C(=O)N(C)C2CCN(C)CC2)cnn1-c1ccc(Cl)cc1
    -0.092	.
> CCC1S/C(=N\N=C\c2ccc(O)c(OC)c2)NC1=O (stereo not given)
    .	5.5
> COc1ccc(NC(=O)CC2NC3CCCCC3NC2=O)cc1Cl (stereo not given)
    .	-0.7
> Cc1nc2cc(NC(=O)Nc3ccccc3Cl)ccc2n1C
    -0.54	-2.5
> CCOC(=O)C1CCN(Cn2nc(C3CC3)oc2=S)CC1
    .	0.7
> O=C(COc1ccc(-c2nnco2)cc1)N1CCOCC1
    .	1.8
> O=C(CSc1nnnn1-c1ccccc1)NC(=O)Cc1ccccc1
    .	0.3
> COc1ccc(C(O)(CCN2CCOCC2)c2ccccc2)cc1 (stereo not given)
    -0.54	-1.5
